VDR inh = blocks the human vitamin D receptor; AID 504847; Potency, µM, inactives show max response, negative = inhibition, usual class: inhibitors; 0.93% of 400,000 active; VDR-SRC2-3 peptide fluorescence polarization, 2 h; P11473; active means well fitted inhibition curve with a large enough effect; inconclusive means small, poorly fitted or top-dose-only effect, or another doubt; inactive means no such curve, though single readings can be large or run the other way; further: series mostly up to about 120 µM
Target sequence (P11473 whole entry, looked up): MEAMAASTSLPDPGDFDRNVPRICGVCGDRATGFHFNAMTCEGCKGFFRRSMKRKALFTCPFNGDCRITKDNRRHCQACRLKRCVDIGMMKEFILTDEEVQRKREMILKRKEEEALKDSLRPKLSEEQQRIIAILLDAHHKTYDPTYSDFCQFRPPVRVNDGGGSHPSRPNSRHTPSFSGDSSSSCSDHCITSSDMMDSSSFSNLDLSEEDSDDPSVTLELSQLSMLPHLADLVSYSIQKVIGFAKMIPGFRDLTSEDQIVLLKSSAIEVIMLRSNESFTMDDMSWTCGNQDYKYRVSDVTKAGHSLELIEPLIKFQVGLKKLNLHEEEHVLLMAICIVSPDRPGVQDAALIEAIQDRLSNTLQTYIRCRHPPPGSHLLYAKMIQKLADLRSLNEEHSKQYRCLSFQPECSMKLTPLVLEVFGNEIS
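Inhibition of the VDR/SRC2-3 peptide interaction is quantified by fluorescence polarization. Compounds (23 nl, pintool) incubate with the reagents for 2 hours at ambient room temperature.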
Starred values were filed as active, the others as inactive; ? = inconclusive. On the % scale 0 is the no-effect control and ±100 the full control effect; potency means the concentration at half of the fitted maximal effect.

canonical_smiles | VDR inh
CC(C)CCC(C(=O)NC(C)c1ccccc1)C(=O)NC(C)c1ccccc1 (stereo unspecified) | -3.8%
CCOc1ccccc1CNC(=O)Cc1ccc(NC(=O)N2CCCCc3ccccc32)cc1 | 13.8%
N#Cc1c(-c2ccco2)cc(-c2cccnc2)nc1N | -11.2%
CCCCc1cc(=O)oc2cc(C)cc(OC(C)C(=O)NCc3cccnc3)c12 (stereo unspecified) | 2.0%
COc1ccc(OCC(O)CNC(=O)c2sccc2Cl)cc1 (stereo unspecified) | -8.6%
C=CCCC(=O)N1CCCC(Cc2cccc(Cl)c2)(C(=O)OCC)C1 (stereo unspecified) | -3.5%
COc1ccc(CC(=O)NCc2ccc(F)cc2)cc1S(=O)(=O)N1CCOCC1 | ?
Cc1nc(N)sc1N=Nc1ccc(F)cc1 | 29.3%
CSc1ccc(S(=O)(=O)Nc2ccc(F)cc2)cc1 | -9.0%
COc1ccc(/C=C/C(=O)OC2CCCCC2CN(C)C)cc1 (stereo unspecified) | 22.0%
CCOC(=O)C1CCCN(C(=O)CSc2nc(C)cc(C)n2)C1 (stereo unspecified) | -1.1%
Cc1cccc(OCCNC(=O)c2cc(-n3cnnc3)ccc2Cl)c1 | -3.5%
CCOc1ccc(CCNC(=O)CS(=O)(=O)Cc2nc(-c3cccc(Cl)c3)oc2C)cc1 | -22.8%
Cc1ccccc1-n1c(SC(C)C(N)=O)nnc1-c1cccnc1 (stereo unspecified) | 12.2%
Oc1ccc(Cl)cc1N=Nc1ccccc1 | 10.1%
COc1cc(C2C(C(=O)c3cccs3)=C(O)C(=O)N2c2cc(C)on2)ccc1O (stereo unspecified) | -10.6%
CCOC(=O)/C(N=Nc1ccc2c(c1)OCO2)=C(\C)O | 5.4%
O=C(COc1ccccc1Cl)N(Cc1ccco1)Cc1ccco1 | 12.5%
Cc1cc(C(=O)NNc2c(Cl)cccc2Cl)no1 | -20.2%
CC(C)(C)NC(=O)c1cnn2c(C(F)F)cc(-c3ccccc3)nc12 | 6.1%
COc1ccc(-c2ccc(C)cc2)cc1[C@H]1[C@H]2C=CC[C@@H](C)[C@@H]2C(=O)N1Cc1ccccc1 | -5.9%
O=C(Nc1ccc(Cl)c(C(F)(F)F)c1)NC1CC2CCCC(C1)N2Cc1ccccc1 (stereo unspecified) | 3.0%
O=C1CCC(C(=O)Nc2ccccc2N2CCOCC2)=NN1 | -8.7%
Cc1cccc(OCc2nnc(SCC(=O)Nc3ccc(C)c(Cl)c3)o2)c1 | -10.3%
O=C1Nc2c(ccc(Cl)c2Cl)C(=O)C1(F)c1ccccc1 (stereo unspecified) | -27.8%
Cc1ccc(NC(=O)CC(=O)Nc2ccc(C)cc2)cc1 | -8.3%
CCOc1ccc(CN2C(=O)c3ccccc3Sc3ccc(C(=O)NC4CCC(C)CC4)cc32)cc1 (stereo unspecified) | -11.0%
O=[N+]([O-])c1ccc(CSc2ccc(S(=O)(=O)N3CCCCCC3)cn2)cc1 | -12.5%
COC(=O)COc1ccc(NC(=O)C(c2ccccc2)c2ccccc2)cc1 | 9.5%
Clc1cccc(-c2ccc(CNCCCN3CCOCC3)o2)c1 | -14.5%
N#CC1=C(N)Oc2[nH]c(=S)[nH]c(=O)c2C12C(=O)Nc1ccccc12 (stereo unspecified) | 44.7µM*
Cc1cc(C)c(S(=O)(=O)N2CCN(C(=O)N3CCOCC3)CC2)c(C)c1 | ?
COc1cc(/C=N/NC(=S)NCCN2CCOCC2)cc(OC)c1OC | 4.4%
O=C(CN1C(=O)/C(=C2\SC(=S)N(C3CCS(=O)(=O)C3)C2=O)c2ccccc21)Nc1ccccc1 (stereo unspecified) | -24.5%
CC(=O)NNC(=O)c1[nH]c2ccc(Cl)cc2c1-c1ccccc1 | -20.1%
Cc1ccc(NC(=O)c2cc(NC(=O)c3ccco3)ccc2N2CCOCC2)cc1 | 0.4%
O=C(NCCc1ccccc1)c1oc2ccccc2c1COc1ccccc1 | -11.6%
CC(=O)c1ccc(-n2nnnc2SCC(=O)Nc2cccc(NC(=O)c3ccco3)c2)cc1 | 13.6%
Cc1oc2cc3oc(=O)ccc3cc2c1C | 4.4%
CCN(CC(=O)Nc1c(F)cccc1F)C(=O)c1ccc(-n2cncn2)c([N+](=O)[O-])c1 | 13.4%
c1ccc(CNc2ccccn2)cc1 | -2.4%
O=S(=O)(NCCOc1ccccc1)c1ccc2ccccc2c1 | -10.7%
C#CCN(C(=O)c1cc(COc2cccc(C(F)(F)F)c2)on1)C1CCCCC1 | -3.9%
CC(C)(C)NC(=O)N1CCN(c2ncccc2C(F)(F)F)CC1 | -2.9%
COc1cccc(-c2cncnc2NCc2cccs2)c1 | -16.9%
CCOc1ccccc1Nc1sc(C(=O)c2ccc(Cl)cc2)c(N)c1C#N | 9.7%
CCOC(=O)N1CCN(C(=O)CSc2ncnc3ccccc23)CC1 | -10.2%
CC(C)[C@H](NC(=O)CCCn1nnc2ccccc2c1=O)C(=O)O | -0.8%
COC(=O)c1ccc(NC(=O)CC2C(=O)N(c3cccc(OC)c3)C(=O)N2Cc2cccs2)cc1 (stereo unspecified) | 7.3%
CC1=C(C#N)C(c2ccccc2O)C(C#N)=C(C)N1 | -20.2%
CCOC(=O)C(O)(CC(=O)c1ccc(OC)cc1)C(F)(F)F (stereo unspecified) | -9.4%
O=C(C1CCCCN1S(=O)(=O)c1ccccc1[N+](=O)[O-])N1CCOCC1 (stereo unspecified) | 3.6%
Cn1ccnc1SCC(=O)Nc1cccc(C(F)(F)F)c1 | 9.9%
N#Cc1c(C(F)(F)F)cc(-c2cccs2)nc1SCC(=O)Nc1cccc(Cl)c1 | -10.5%
C=CC[C@@H](CC(=O)N(CCO)Cc1ccccc1)C(=O)NCCOC(=O)[C@@H](CC=C)Cc1ccc(F)cc1 | -1.4%
Cn1c(=O)n(C)c2cc(NC(=O)c3ccc(F)cc3)ccc21 | 0.5%
Cc1cccc(NC(=O)C2CCCN(S(=O)(=O)c3cccc4nonc34)C2)c1C (stereo unspecified) | -18.2%
Cc1[nH]n(-c2ccccc2)c(=O)c1N=Nc1ccccc1C(=O)O | -11.8%
CCOC(=O)Cc1csc(N/N=C\c2ccccc2OC)n1 | -12.7%
Cc1nc(C)c(C(=O)OCC(=O)NCc2ccccc2)s1 | -0.1%

Going on with the list:
canonical_smiles | VDR inh
COc1cccc(C(=O)N2CCN(C(=O)c3cccc4ccccc34)CC2)c1OC | 11.3%
Cc1nc2ccc(NC(=O)N3CCN(c4ccccn4)CC3)cc2s1 | -11.8%
CCOc1ccc(-c2cn3c(n2)sc2cc(C(=O)NC4CCCc5ccccc54)ccc23)cc1 (stereo unspecified) | 7.5%
CC1CCCCN1C(=O)Cc1ccc(F)cc1 (stereo unspecified) | 20.8%
O=[N+]([O-])c1ccc(Sc2ccc(F)cc2)nc1 | -12.5%
O=C(c1cccc(S(=O)(=O)Nc2cccc(C(F)(F)F)c2)c1)N1CCOCC1 | 10.1%
COC(=O)c1[nH]c2ccc(Br)cc2c1NC(=O)C(C)N1CCN(C2CCCCC2)CC1 (stereo unspecified) | 17.7%
Cc1ccc(CNC(=O)CCS(=O)(=O)c2ccc(Cl)cc2)cc1 | -8.8%
Cc1cc(C)n(C(=O)CSc2nc3ccccc3o2)n1 | -4.1%
Cc1cc(C)n(-c2ccc(C(=O)N3CCN(S(=O)(=O)c4ccc(Cl)cc4)CC3)cc2)n1 | -3.4%
CC1=CC(C)[C@H](/C=N/n2c(=O)[nH]c3c([nH]c4ccc(Br)cc43)c2=O)C(C)C1 (stereo partly specified) | 4.4%
CCN1C(=O)CC(N2CCN(c3ccc(OC)cc3)CC2)C1=O (stereo unspecified) | 1.5%
Cc1cccc(NC(=O)c2cc(-c3ccc(C)s3)nc3ccccc23)n1 | -18.1%
CN1CCN(CCNC(=O)c2cnn(-c3cccc(Cl)c3)c2C2CCN(C(=O)OC(C)(C)C)CC2)CC1 | 3.5%
C=C(C)CN(CC)C(=O)CN1C(=O)NC2(CCc3ccccc32)C1=O (stereo unspecified) | 8.5%
CCCOc1ccc(-c2nc(C#N)c(NCC3CCCO3)o2)cc1 (stereo unspecified) | -11.8%
CCC1CCCCN1Cc1c(O)ccc2c(=O)c(Oc3ccccc3Cl)c(C(F)(F)F)oc12 (stereo unspecified) | -11.4%
O=S(=O)(NCc1ccc2c(c1)OCO2)c1ccc2c(c1)oc1ccccc12 | 13.8%
CC1(c2nnc(-c3ccc(F)cc3)o2)CC(c2ccc(F)cc2)=NO1 (stereo unspecified) | ?
CCN(CC)CCN(C(=O)c1ccc2c(c1)CCCC2)c1nc2c(C)cccc2s1 | -10.3%
COc1cc2c(cc1OC)[C@H](C)N(CC1C(=O)O[C@@H]3C[C@@]4(C)CCC[C@H](C)[C@@]45OC5[C@H]13)CC2 (stereo partly specified) | -20.3%
COC(=O)c1ccc(COC(=O)CNC(=O)c2ccc(C)s2)cc1 | 1.9%
COc1cccc(CNC(=O)[C@@H](C)N2C(=O)N3CCc4c([nH]c5ccc(OC)cc45)C3(C)C2=O)c1 (stereo partly specified) | -16.3%
CCN1CCN(c2nc(Nc3ccccc3)nc(N)c2[N+](=O)[O-])CC1 | -4.1%
Cc1ccc(S(=O)(=O)C(CNC(=O)COc2ccc(Cl)cc2)c2ccco2)cc1 (stereo unspecified) | -8.9%
CC(c1ccccc1)n1cc(C(=O)NCC2CCCO2)nn1 (stereo unspecified) | -4.7%
Cc1ccc(OCC(=O)NC(C)c2ccccc2)cc1C (stereo unspecified) | -7.3%
COc1ccc(CCN2CC(C(=O)N(C)Cc3cccnc3)CC2=O)cc1OC (stereo unspecified) | 6.8%
Cc1cc(C)cc(NC(=O)CCn2cnc3cc(C)c(C)cc32)c1 | 4.3%
CCC(CO)Oc1cc(NCc2ccccc2)c2ncn(C(C)C)c2c1 (stereo unspecified) | ?

A second format for part of the listing above:
| VDR inh | Structure |
| --- | --- |
| 6.8% | COc1ccc(CCN2CC(C(=O)N(C)Cc3cccnc3)CC2=O)cc1OC (stereo unspecified) |
| 4.3% | Cc1cc(C)cc(NC(=O)CCn2cnc3cc(C)c(C)cc32)c1 |
| ? | CCC(CO)Oc1cc(NCc2ccccc2)c2ncn(C(C)C)c2c1 (stereo unspecified) |

Next section.
canonical_smiles | VDR inh
COc1ccc(/C=C(\NC(=O)c2ccc(OC)cc2)C(=O)N2CCCCC2)cc1 | -19.3%
CC(=O)N1CCc2cc(Br)cc(S(=O)(=O)N3CCC(C(=O)Nc4cccc(C)c4C)CC3)c21 | -3.5%
CCCN1C(=O)c2ccc(C(=O)NC3=NCCS3)cc2C1=O | 2.0%
Cc1cccc(OCC(=O)Nc2ccc(N3CCN(C(=O)c4ccco4)CC3)cc2)c1C | -13.4%
CCN(CC)C(=O)CSc1nnc([C@H](Cc2c[nH]c3ccccc23)NC(=O)OC(C)(C)C)o1 | 7.1%
N#CC1=C(N)Oc2ccc3ccc(O)cc3c2C1c1cccnc1 (stereo unspecified) | 7.6%
O=C(c1cccc([N+](=O)[O-])c1)N1CCCC(C(=O)N2CCc3ccccc3C2)C1 (stereo unspecified) | -24.0%
COCc1ccc(C(=O)N(C)CC2CCCN(CCc3ccccc3F)C2)o1 (stereo unspecified) | 5.2%
CCCCOc1ccccc1C1CC(=O)Nc2cc(OC)c(OC)cc21 (stereo unspecified) | -23.5%
O=C(C[n+]1cc[nH]c1)c1ccc(Cl)cc1 | -14.1%
COc1cc2c(cc1NC(=O)COC(=O)C(CCSC)NC(=O)c1ccccc1Cl)oc1ccccc12 (stereo unspecified) | -1.2%
Cc1ccc2oc(=S)n(C)c2c1 | -9.2%
COC(=O)c1ccc(NC(=O)C(=O)NCCc2csc(-c3ccc(F)cc3)n2)cc1 | 17.1%
Nc1ccc(C(O)(C(F)(F)F)C(F)(F)F)cc1 | -9.0%
Cc1ccc(C(=O)N2CCC(C)CC2)cc1C | -7.2%

Arranged by length of the SMILES (descending): 3 of the compounds above
canonical_smiles | VDR inh
COc1ccc(/C=C(\NC(=O)c2ccc(OC)cc2)C(=O)N2CCCCC2)cc1 | -19.3%
N#CC1=C(N)Oc2ccc3ccc(O)cc3c2C1c1cccnc1 (stereo unspecified) | 7.6%
Nc1ccc(C(O)(C(F)(F)F)C(F)(F)F)cc1 | -9.0%

(listing goes on)
canonical_smiles | VDR inh
O=c1ccnc(SCc2ccccc2Cl)[nH]1 | 3.0%
CC(=O)c1c(C)n(-c2cccc(Cl)c2)c2ccc(OC(=O)c3ccccc3)cc12 | -21.4%
COc1ccc(-c2ccc3c(c2)S(=O)(=O)c2cccc(C(=O)NC[C@@H]4CCCO4)c2C3=O)cc1OC | -1.0%
CCC(C)C(NC(=O)C1CCC(C)CC1)C(=O)NC(CCSC)C(=O)OC (stereo unspecified) | 4.0%
CC(=O)c1ccc(N2CCN(c3ncnc4onc(C)c34)CC2)cc1 | 0.4%
Cc1cccc(Cc2cnc(NC(=O)CN3C(=O)/C(=C/c4ccccc4)SC3=S)s2)c1 | 4.3%
O=C(C1CCN(S(=O)(=O)c2ccc(Br)s2)CC1)N1CCN(c2cccc(Cl)c2)CC1 | -9.0%
CCOC(=O)C1=C(C)NC(C)=C(C(=O)OCC)C1C(=O)OCC(=O)N1CCCCC1C (stereo unspecified) | 2.6%
Cc1[nH]c2ccccc2c1CCN(Cc1cccs1)C(=S)Nc1ccccc1 | ?

Screens deposited in PubChem BioAssay by National Center for Advancing Translational Sciences (NCATS).

Not all compounds are listed; the hit share may differ from the screen's.
